Bst PK mod: pyruvate kinase (B. stearothermophilus) modulation; partly purified Bacillus stearothermophilus pyruvate kinase, luminescence ATP production; ribose 5-phosphate activator present at AC10; 51,000 compounds, 1.2% hits; Potency, µM; in the data active means potency below about 11 µM; inconclusive means mostly about 12 µM to 25 µM; inactive means weaker than that;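 the screen sought inhibitors and activators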;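 note: potency is the fitted concentration of half-maximal effect; scaled between full activation by ribose 5 phosphate and full inhibition by luteolin; about four in five hits inhibit and the cells do not say which; series up to 57 µM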
TsaE inh: displaces an ADP probe from E. coli YjeE (TsaE). Potency, µM. purified YjeE, fluorescence polarisation of a bound ADP probe. P0AF67. 71,000 compounds, 0.05% hits; active = well fitted falling curve; inconclusive = weaker or top-dose-only fall, or a rising curve; inactive = flat or poorly fitted curve;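 note: top concentration of the series not given in the record; excess ADP was the control for the full effect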
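Fluorescence polarization of a BODIPY Texas Red–ADP probe (2 uM) bound to purified YjeE (10 uM) was read after 15 min room-temperature incubation with compounds. Loss of polarization marks inhibitors; ADP serves as titrated control.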
An asterisk follows results filed as active; i = inactive; ? = inconclusive; · = no result given. Not all compounds are listed; the hit share may differ from the screen's.

TsaE inh,Bst PK mod,structure
i,>57,Brc1[nH]nc2ccccc12
i,·,NC(=S)NCCC[C@@H](N)C(=O)O
i,·,Cc1nc2cnc(N3CCNCC3)nc2n(Cc2ccc(F)cc2)c1=O
i,>57,Cc1ccc(C(c2nnnn2CC2CCCO2)N2CCN(C(=O)c3ccco3)CC2)cc1 (stereo not drawn)
?,·,Cn1cc(C2=C(c3ccc(Cl)cc3Cl)C(=O)NC2=O)c2ccccc21
i,·,Cc1cccc(N2CCN(C(=O)c3cc4c(=O)n(C)c5ccccc5c4n3C)CC2)c1C
·,>26,Cc1cc(=O)oc2c(CN3CCCCC3)c(O)c(Cl)cc12
i,>57,O=C(NCc1ccc(N2CCCC2=O)cc1)c1cnccn1
i,>57,COc1ccc(C(=O)CSc2nnc(COc3ccc(C#N)cc3)n2-c2ccccc2)cc1
i,>57,COCCCNC(=O)c1ccccc1NS(C)(=O)=O

Continuation:
TsaE inh,Bst PK mod,structure
i,>57,CCn1c(SCCC(=O)O)nnc1-c1cccnc1
i,·,Cc1ccc(-c2c(C)c(-c3ccc(F)cc3)nc(N)c2C#N)o1
i,>57,COCCNC(=O)C1CCCN(c2nn3c(=O)cc(C)nc3s2)C1 (stereo not drawn)
i,·,COC(=O)[C@@]1(Cc2ccc(OC)cc2)[C@@H]2C(=CC(=O)[C@H]2CC(=O)C(=O)N(C)C)CN1C(=O)c1ccccc1
i,·,O[C@@H]1[C@@H](OCc2ccccc2)OC[C@H](O)[C@@H]1O
i,·,CCC(=O)Nc1ccc2oc(-c3ccccc3Br)nc2c1
79µM*,·,CC1CCCCN1Cc1nc2c(c(=O)n(C)c(=O)n2C)n1Cc1c(F)cccc1Cl (stereo not drawn)
i,>57,CC(=O)c1c(C(C)=O)c(C)n(-c2ccc(C(=O)O)cc2)c1C
i,>57,COc1ccc(-c2c3c(=O)n(C)c(=O)n(C)c3cn2Cc2ccccn2)cc1
i,·,CCn1c(-c2cccc(Cl)c2)n[nH]c1=S

New compounds follow.
TsaE inh,Bst PK mod,structure
i,·,CC(=O)Oc1ccc2c(c1)c(C(C)=O)c(C)n2C
i,>57,Cc1ccc(C)c(N2CCN(C(=O)CCCn3c(=S)[nH]c4cc5c(cc4c3=O)OCO5)CC2)c1
i,>57,Cn1c(Cn2c(=O)sc3ccccc32)nnc1SCc1ccccn1
i,·,Cc1cc(N2CCN(C3CCCCC3)CC2)nc2cccc(O)c12
i,>57,CCOC(=O)N1CCN(S(=O)(=O)c2c(C)nn(C)c2C)CC1
·,>26,COc1ccc(CC(=O)n2c(CC#N)nc3ccccc32)cc1OC
i,·,COc1ccc(C(=O)N2CCC3(CCCN(C)C3)CC2)cc1
i,>57,COc1cccc(NS(=O)(=O)c2ccc3[nH]cc(C(=O)NCCC(C)C)c(=O)c3c2)c1
i,·,CN(C)c1ccc(-c2nc(N3CCNCC3)c3ccccc3n2)cc1
i,>57,Cc1ccc(S(=O)(=O)NCCCN2CCOCC2)c(C)c1

Continued, overlapping the part above by three compounds.
TsaE inh,Bst PK mod,structure
i,>57,COc1cccc(NS(=O)(=O)c2ccc3[nH]cc(C(=O)NCCC(C)C)c(=O)c3c2)c1
i,·,CN(C)c1ccc(-c2nc(N3CCNCC3)c3ccccc3n2)cc1
i,>57,Cc1ccc(S(=O)(=O)NCCCN2CCOCC2)c(C)c1
i,·,O=C(Nc1ccc(-c2noc(-c3cccs3)n2)cc1)c1cccnc1
i,·,O=P(CCC(F)(F)F)(CCC(F)(F)F)CCC(F)(F)F
i,·,COCCNC(=O)C1(CC(C)C)C=CCN1C(=O)c1ccccc1 (stereo not drawn)
i,i,Cn1nnnc1SCC(=O)Nc1c(Cl)cccc1Cl
i,>57,COc1ccccc1CN(CC(=O)NCc1ccco1)C(=O)CNS(=O)(=O)c1ccc(C)cc1
i,·,Cc1ccc(-c2csc(NC(=O)c3cccc(N4C(=O)CCC4=O)c3)n2)o1
i,>57,Cc1ccc(C)c(Cn2c(=O)c3c(nc4n3CCN4Cc3ccco3)n(C)c2=O)c1
i,·,O=C(NC1CCCCCC1)C1CCN(S(=O)(=O)c2cccc3cccnc23)CC1
i,·,CC(C)c1ccc(OCc2nc(-c3ccccn3)no2)c(Br)c1
i,>57,NC(=O)Nn1c(CCC(=O)O)ccc1-c1ccc(Br)cc1

Additional entries follow.
TsaE inh,Bst PK mod,structure
i,>57,CCc1cccc2c(C#N)cn(CC(=O)NCc3ccco3)c12
i,·,COc1ccc(Cl)cc1S(=O)(=O)n1ccnc1C(C)C
i,>57,O=C(c1ccc(Br)s1)N1CCN(Cc2ccc3c(c2)OCO3)CC1
i,>57,CCC(CC)C(=O)N(c1ccc(F)cc1)C1C=CS(=O)(=O)C1 (stereo not drawn)
i,·,CS(=O)(=O)N1CCCC(C(=O)NCc2ccco2)C1 (stereo not drawn)
i,>57,CCOC(=O)c1ccc(CNC(=O)c2cc3cccc(OC)c3oc2=O)o1
i,>57,CC(C)NC(=O)N(O)C1N(Cc2ccc3c(c2)OCO3)C(=S)SC1(C)C (stereo not drawn)
i,·,Cc1ccccc1S(=O)(=O)Cc1ccc(C(=O)N2CC(C)CC(C)C2)o1 (stereo not drawn)
·,>11,O=C(CC1SC2=NCCN2C1=O)Nc1ccccc1 (stereo not drawn)
i,·,Cc1noc(C)c1S(=O)(=O)N(CC(=O)N1CCc2ccccc21)c1ccc(C(C)C)cc1

Remaining list, next part
TsaE inh,Bst PK mod,structure
i,>57,CC(=O)Nc1ccc(Cl)c(C(N)=O)c1
i,>57,CC(C)CNC(=O)c1cccc(NC(=O)c2ccc(NC(=O)c3ccco3)cc2)c1
i,>57,COc1cccc(-n2nnnc2SCC(=O)c2ccc(NC(C)=O)cc2)c1
i,·,COc1ncc2nc(-c3cn(C)c4ccccc34)c(=O)n(CCc3ccccc3)c2n1
i,>57,N#CCc1ccc(NC(=O)Nc2cccc(Cl)c2)cc1
i,·,CCCCn1c(CNC(=O)CC)nc2ccccc21
i,>11,CN1CCN(C2=Nc3ccccc3Oc3ccc(Cl)cc32)CC1
i,·,C/C(CC(O)c1ccc2ccccc2n1)=N/O (stereo not drawn)
i,>57,COCC(=O)Nc1sc2c(c1C(=O)OC)CCCC2
i,>57,COc1ccc(CN(CC(=O)NCC2CCCO2)C(=O)CNS(=O)(=O)c2ccc(C)cc2)cc1 (stereo not drawn)

(continued)
TsaE inh,Bst PK mod,structure
i,>57,COc1ccc(CC(NC(C)=O)C(=O)N2CCN(C(=O)Nc3ccc(Cl)cc3)CC2)cc1OC (stereo not drawn)
i,>57,CCOc1ccccc1N(CC(=O)OC)S(C)(=O)=O
i,>57,O=C(CCSc1ccccc1)N1CCOCC1
i,·,c1csc(CNc2ncnc3ccc(-c4ccoc4)cc23)c1
i,>57,c1ccc(-c2cc3c(nn2)CCc2nonc2-3)cc1
i,·,O/N=C1\CC/C(=N\O)c2nn(-c3ccccc3Cl)nc21
i,·,N#Cc1cccc(NC(=O)N2CCCC3(CCN(C(=O)c4cccc(F)c4)CC3)C2)c1
i,>57,O=C(CN1C(=O)CSc2ccccc21)NCCC1=CCCCC1
i,·,Cc1ccc(C2CCN(C(=O)Nc3ccccc3)C2)cc1 (stereo not drawn)
i,>57,O=C(Nc1nccs1)c1ccc(COc2ccc(Cl)cc2)o1

Other records.
TsaE inh,Bst PK mod,structure
i,?,CC(=O)Nc1ccc2oc(-c3ccccc3Br)nc2c1
i,>57,O=C(COC(=O)CCc1nc2ccccc2s1)Nc1ccc(S(=O)(=O)N2CCOCC2)cc1
i,>57,COC(=O)c1cc(Br)c(=O)n(CCN(C(C)C)C(C)C)c1
·,>26,CCCCNC(=O)N1CCOCCOCCN(C(=O)NCCCC)CCOCCOCC1
i,>57,CC1CN(C(=O)CN2C(=O)c3ccccc3S2(=O)=O)CC(C)O1 (stereo not drawn)
i,>57,Cc1nn(Cc2ccc(C(=O)Nc3ccc(C(=O)OC(C)C)cc3)o2)c(C)c1Cl
i,>57,CC1(C)Cc2c(sc3c2c(=N)n(Cc2ccco2)c(=O)n3CC(=O)Nc2ccccc2)CO1
i,7.8*,Cc1nn(-c2nc3ccccc3s2)c(N)c1-c1ccc(Cl)cc1
i,>11,Cc1ccc(C2NC(=O)c3c(sc4c3CCN(C)C4)N2)o1 (stereo not drawn)
i,·,Clc1ccc(Cn2nnc(-c3ccc(CN4CCOCC4)cc3)n2)cc1

Remaining list, next part.
TsaE inh,Bst PK mod,structure
i,>57,COc1ccc(N/C(N)=N/c2nc(CSc3ccc(C)cc3)cc(=O)[nH]2)cc1
i,·,COC(=O)c1ccc(NC(=O)CN2CCCC2)cc1
i,>57,O=C(CSc1ncnc2c1cnn2-c1ccccc1)Nc1ccccc1
i,>57,O=C(CNC(=O)c1ccco1)Nc1cc(Cl)ccc1N1CCOCC1
i,>57,O=C(CSc1ncnc2sc3c(c12)CCCCC3)NCc1ccco1
i,>57,COCCNC(=O)CN(C)S(=O)(=O)c1ccc2c(c1)OCCO2
i,·,CC(C)Cc1cc(C(=O)NCc2ccco2)no1
i,·,COc1ccc2[nH]cc(CCNc3nc(-c4ccccc4OC)nc4ccccc34)c2c1
i,>57,O/N=C1/CCCCC1c1ccccn1 (stereo not drawn)
i,>57,O=C(OCc1cc2ccccc2[nH]c1=O)c1ccco1

(listing goes on)
TsaE inh,Bst PK mod,structure
i,>57,CSc1nc(N)nc(SC2C=CCCC2)c1C#N (stereo not drawn)
i,>57,CC(=O)Nc1ccc(S(=O)(=O)Nc2nccc(C3Cc4ccccc4C(=O)O3)n2)cc1 (stereo not drawn)
i,>57,Cc1csc(C(C#N)C(=O)c2ccncc2)n1 (stereo not drawn)
i,i,Cc1ccccc1-c1ccc(C=Nc2c(C)n(C)n(-c3ccccc3)c2=O)o1
i,>57,Cc1ccc(S(=O)(=O)n2nc(-c3ccco3)nc2SCc2ccccc2)cc1
i,·,O=C(c1ccccc1)n1nc(-c2ccccc2)nc1NCc1ccco1
i,>57,O=C(CN1CCCCC1)Nc1ccc(S(=O)(=O)NC2CCCCC2)cc1
i,>57,CCn1c2ccc(CC(=O)O)cc2c2cc(CC(=O)O)ccc21
i,·,COCCn1c(=O)c(-c2ccc(OC)cc2)nc2cnc(Oc3cccc(Cl)c3)nc21
i,>57,CCn1cc(C(=O)N2CCc3ccccc32)c(=O)c2cc(S(=O)(=O)N3CCOCC3)ccc21

(further entries)
TsaE inh,Bst PK mod,structure
i,>57,Cc1cc2nnc(SCc3ccccc3)n2c(N)n1
i,>57,CCN(CCCNC(=O)C1CCN(S(=O)(=O)N2CCC3(CC2)OCCO3)CC1)c1ccccc1
i,>57,CC(=O)N1CCc2cc(S(=O)(=O)CCC(=O)Nc3ccc4c(c3)OCCO4)ccc21
i,>57,Cc1noc(C)c1C(=O)N1CCN(c2ncccn2)CC1
i,>57,COc1ccc(CN2C(=O)c3cccnc3C2Nc2cc(Cl)ccc2OC)cc1 (stereo not drawn)
i,>57,COC(=O)c1cc(Br)c(=O)n(Cc2ccc(C(=O)O)cc2)c1
i,>57,CC(C)c1nc(SCC(=O)NCc2ccccc2)n[nH]1
·,>26,Cc1cc(OCCN2CCCCC2)nc2ccccc12
i,·,CCn1cc(C(=O)N2CCOCC2)c(=O)c2cc(S(=O)(=O)N(C)C3CCCCC3)ccc21
i,>57,CC1CCN(c2nc3c(c(=O)n(C)c(=O)n3C)n2CCSc2nc3ccccc3s2)CC1

Entries of single compounds, quoted from the list. Order of values: TsaE inh | Bst PK mod
`COC(=O)c1cc(Br)c(=O)n(Cc2ccc(C(=O)O)cc2)c1` as listed: i | >57
`CC(C)c1nc(SCC(=O)NCc2ccccc2)n[nH]1` as listed: i | >57
`Cc1noc(C)c1C(=O)N1CCN(c2ncccn2)CC1` as listed: i | >57
`COc1ccc(CN2C(=O)c3cccnc3C2Nc2cc(Cl)ccc2OC)cc1` (stereo not drawn) as listed: i | >57

The listing continues.
TsaE inh,Bst PK mod,structure
i,·,COc1ccc(N2CCN(C(=O)c3sc4nc(-c5ccc(F)cc5)cn4c3C)CC2)cc1
i,>57,CCOC(=O)N1CCN(c2ncnc3c2oc2nc(CC(C)C)c4c(c23)CCC4)CC1
i,>57,CCc1ccc(Nc2ncc3c(n2)CC(c2ccco2)CC3=O)cc1 (stereo not drawn)
i,>57,Cn1c(/C(C#N)=C/C2CC=CCC2)nc2ccccc21 (stereo not drawn)
?,·,CCCCCCCCCCCCCCCC[n+]1ccccc1
i,>57,CCOc1ccc(N2CC(O)Cn3c2nc2c3c(=O)n(CCCc3ccccc3)c(=O)n2C)cc1 (stereo not drawn)
i,>57,Cc1cc(-c2ccccc2)c(C#N)c(SCC(N)=O)n1
i,3.3*,O=S(=O)(Nc1ccc2c(c1)OCCO2)c1cccc2cccnc12
i,>57,Cc1nc2c(C(=O)O)cnn2c(C)c1Cc1ccccc1F
i,>57,CCOC(=O)N1CCN(C(=O)C2CC(=O)N(Cc3ccc(OC)cc3)C2)CC1 (stereo not drawn)

Additional structures.
TsaE inh,Bst PK mod,structure
i,·,Cc1cccc(CSc2nnc(Cn3c(=O)sc4ccccc43)n2C)c1
i,>57,CCC(C)n1c(C)nc2c(c1=O)c1nc3ccccc3nc1n2-c1ccc2c(c1)OCCO2 (stereo not drawn)
i,>57,O=C(CSc1nnc(-c2cccnc2)n1C1CCCCC1)NC1CCCC1
i,>57,COCCn1nnnc1C(c1cc2cc(C)ccc2[nH]c1=O)N1CCN(C2CCCCC2)CC1 (stereo not drawn)
i,>57,COc1ccccc1NS(=O)(=O)c1ccc2oc(SC3CCOC3=O)nc2c1 (stereo not drawn)
i,>57,COC(=O)c1ccc(C2C(C(=O)Nc3ccccc3C)=C(C)Nc3ncnn32)cc1 (stereo not drawn)
i,·,Cc1cc(N2CCCc3ccccc32)n2ncnc2n1
